Six1-Eya2 inh = Six1/Eya2 interaction inhibition; 360,000 tested, 0.56% active; AlphaScreen GST-Six1/His-Eya2 binding, biochemical; stronger effect = lower value; control for the full effect not named in the record; activity change, % (test concentration not listed); Q15475+O00167; in the data active = activity change below about -65%; inconclusive = about -30% to -65%; inactive = above about -30%; also: % is scaled to controls: 0 for no effect and ±100 for the full control effect; compound concentration not given in the record
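AlphaScreen with GST-Six1 and His-Eya2 (5X mix: 250 nM and 500 nM), glutathione donor and nickel acceptor beads; buffer 50 mM Tris pH 8.0, 300 mM NaCl, 1 mM TCEP; 1 h at 37 C in the dark.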
TRPML1 agonist = activates the human TRPML1 channel; Q9GZU1; TRPML1-expressing cells, Ca2+ dye fluorescence, FDSS; host cell line not named in the record; reference of the full effect not given here; activation, % (concentration not given with the values); 410,000 tested, 0.12% active; AID 624414; in the data active = activation above about 50%; inconclusive = about 30% to 50%; inactive = below about 30%; also: 0% is about no effect; the text of the record puts the active cut at 80%
Target sequence (Q9GZU1 whole entry, looked up): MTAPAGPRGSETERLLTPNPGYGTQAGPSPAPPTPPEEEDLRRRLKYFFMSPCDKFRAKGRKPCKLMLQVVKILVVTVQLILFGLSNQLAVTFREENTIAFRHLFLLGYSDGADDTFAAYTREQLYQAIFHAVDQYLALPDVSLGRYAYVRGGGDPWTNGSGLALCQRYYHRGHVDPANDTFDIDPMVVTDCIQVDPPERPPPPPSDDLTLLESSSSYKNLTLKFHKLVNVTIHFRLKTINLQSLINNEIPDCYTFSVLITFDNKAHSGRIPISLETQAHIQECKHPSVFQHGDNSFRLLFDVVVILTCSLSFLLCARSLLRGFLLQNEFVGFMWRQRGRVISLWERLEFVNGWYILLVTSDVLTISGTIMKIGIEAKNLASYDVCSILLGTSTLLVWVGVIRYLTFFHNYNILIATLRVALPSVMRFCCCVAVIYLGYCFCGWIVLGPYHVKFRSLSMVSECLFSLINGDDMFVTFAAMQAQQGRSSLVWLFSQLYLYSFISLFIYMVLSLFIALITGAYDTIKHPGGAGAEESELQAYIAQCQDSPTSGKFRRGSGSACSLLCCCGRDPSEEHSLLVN
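Tetracycline-induced TRPML1-DL cells are seeded and incubated overnight before loading with a no-wash Ca2+ dye and quencher. Agonist activity is taken from the 110 s fluorescence read following compound pin-transfer on an FDSS, before EC80 54-4 challenge.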
D2 agonist = human D2 receptor agonism in beta-arrestin assay; P14416; DiscoveRx PathHunter D2 beta-arrestin, luminescence, 90 min; 100% = 57 uM dopamine signal; activation, % (test concentration not listed); 360,000 tested, 0.084% active; AID 624465; in the data active = activation above about 40%; inconclusive = about 15% to 40%; inactive = below about 15%; also: compound concentration not given in the record; the text of the record calls up to 30% inactive
Target sequence (P14416 whole entry, looked up): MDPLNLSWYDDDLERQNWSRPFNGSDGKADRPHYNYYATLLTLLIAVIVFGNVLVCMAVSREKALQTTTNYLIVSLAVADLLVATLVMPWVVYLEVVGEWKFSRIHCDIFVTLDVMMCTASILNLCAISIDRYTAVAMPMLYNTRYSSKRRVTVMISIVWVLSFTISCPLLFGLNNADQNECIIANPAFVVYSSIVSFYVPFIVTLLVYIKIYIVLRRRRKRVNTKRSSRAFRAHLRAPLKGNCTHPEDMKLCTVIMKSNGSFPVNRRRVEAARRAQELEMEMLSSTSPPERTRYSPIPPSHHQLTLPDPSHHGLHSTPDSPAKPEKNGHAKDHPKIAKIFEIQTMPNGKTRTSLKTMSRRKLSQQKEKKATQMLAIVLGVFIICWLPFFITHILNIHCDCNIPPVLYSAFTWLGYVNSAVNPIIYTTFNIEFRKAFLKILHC
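Agonist mode: compounds alone added to overnight-plated D2 PathHunter cells for 90 min at 37 C, with 57 uM final dopamine (EC100) defining full response. Beta-arrestin recruitment detected by chemiluminescent reagent, read after 1 h at ambient temperature.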
TRPML1 blocker = human mucolipin-1 channel inhibition; Q9GZU1; TRPML1-inducible cells, Ca2+ dye fluorescence, FDSS; stronger effect = lower value; inhibition of EC80 agonist-evoked calcium signal; activity change, negative = inhibition, % (concentration not given with the values); 390,000 tested, 0.02% active; AID 624415; in the data active means activity change below about -50%; inconclusive means about -30% to -50%; inactive means above about -30%;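 also: stimulus is agonist 54-4 at its EC80 concentration; % is scaled to controls: 0 for no effect and ±100 for the full control effect; compound concentration not given in the record; the text of the record puts the active cut at -80%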
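Calcium fluorescence in TRPML1-DL cells induced overnight with Tet: a 110 s read after compound pin addition, then a 110 s antagonist read after challenge with 54-4 at 4 uM final (EC80).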
CtBP-E1A blk = CtBP/E1A binding inhibition. AlphaScreen GST-E1A/His-CtBP binding, 1536-well; stronger effect = lower value; control for the full effect not named in the record. activity change, % (concentration not given with the values). 340,000 tested, 0.49% active. AID 651724; in the data active means activity change below about -65%; inconclusive means about -30% to -65%; inactive means above about -30%; also: % is scaled to controls: 0 for no effect and ±100 for the full control effect
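Protein mix (5X: 125 nM each GST-E1A, His-CtBP) was incubated with pinned compound 2 h at 37 deg C in dark, in 50 mM Tris pH 8.0 buffer with 300 mM NaCl. Glutathione donor and nickel acceptor beads followed; AlphaScreen signal read after 1 h.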
PINK1 expr mod = modulators of PINK1 expression; PINK1 immunofluorescence, high-content cytometry, 24 h; Potency, µM (highest dose often 76.6 µM), for the others: at the top dose activation (PINK1 increase), actives largely listed as activators; 410,000 tested, 0.2% active; AID 624263; active = well fitted activation curve with a large enough effect; inconclusive = small, poorly fitted or top-dose-only effect; inactive = flat fitted curve, though single readings scatter; cell line not stated here;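 also: potency is read from the fitted curve at half-maximal effect; % of control where 0% means no effect; nearly all actives have a fitted effect of over 65% in size; a mitochondrial uncoupler was the plate control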
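PINK1 protein, normally rapidly degraded, was detected by immunofluorescence after 24 hour compound treatment of a stable cell line. Titration data (5 concentrations) came from laser-scanning cytometry, with CCCP-treated wells as controls.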
Starred values were filed as active, the others as inactive; ? = inconclusive; nt = not tested or not shown; [ ] = another dose, or the depositor's remark.

Value order: D2 agonist	TRPML1 blocker	Six1-Eya2 inh	CtBP-E1A blk	PINK1 expr mod	TRPML1 agonist
CCCCCCCNC(=O)C1(CC2CC(c3ccc(Cl)cc3)=NO2)CCN(C(=O)CCCCCBr)CC1 (stereo unspecified)
    -3.3	-3	5	nt	-1.1%	0.2
CC(C)(C)NCC(O)(c1ccc(Cl)cc1)c1ccc(Cl)cc1
    -0.7	-4	-1	5	16%	2.0
Cc1cc(=O)oc2c3c(cc(OCC(=O)NCCCn4ccnc4)c12)OC(C)(C)CC3
    -5.5	18	-3	10	0.7%	-0.1
O=C(NCCCn1ccnc1)C(=O)c1cn(CC(=O)N2CCCCCC2)c2ccccc12
    11	-1	-2	1	6.3%	-0.6
CCCCN(C)CCCNC(=O)CC1Oc2ccccc2NC1=O (stereo unspecified)
    1.3	5	22	-22	-0.2%	0.0
Cc1sc2nc(CSC(C)C(=O)NC3(C#N)CCCCC3)[nH]c(=O)c2c1C (stereo unspecified)
    -6.5	-8	-3	5	-1.4%	1.1
Cc1cc(SCC(=O)c2cccs2)n2nc(C)c(-c3ccccc3)c2n1
    -2.8	8	-2	5	3.0%	1.4
CCOC(=O)c1csc(NC(=O)CN2CCCCC2)n1
    8.3	-16	-1	5	3.6%	-0.2
CCOc1ccc(N(CC(=O)NC2CCCC2)S(=O)(=O)c2c(C)[nH]c(=O)[nH]c2=O)cc1
    -5.0	32	-5	0	1.0%	-0.7
COc1ccc(Cn2c(=S)[nH]c3cc(C(=O)NCc4cccnc4)ccc3c2=O)cc1
    -16	6	0	17	3.1%	-0.3

(cont.)
Value order: D2 agonist	TRPML1 blocker	Six1-Eya2 inh	CtBP-E1A blk	PINK1 expr mod	TRPML1 agonist
N#CC(CC(=O)c1ccc(F)cc1)c1ccc2c(c1)OCO2 (stereo unspecified)
    3.2	12	8	-16	0.3%	1.2
COc1ccc(N2CCN(C3CC(=O)NC3=O)CC2)cc1 (stereo unspecified)
    -4.1	10	1	7	-0.3%	-1.0
CCC(C)Nc1nc2c(c(=O)n(C)c(=O)n2C)n1Cc1ccc(Cl)cc1 (stereo unspecified)
    0.4	-13	-2	-2	4.9%	-0.4
COc1ccc2[nH]c3nc(SCC(=O)Nc4cccc(NC(C)=O)c4)nnc3c2c1
    1.8	-6	?	?	1.6%	1.2
CCCCn1c(N)c(N(CC(C)C)C(=O)c2ccc(F)c(S(=O)(=O)N3CCOCC3)c2)c(=O)[nH]c1=O
    -1.3	19	-5	10	2.4%	-0.3
Cc1ccc2c(c1)c1c(n2CC(O)Cn2ccnc2C)C(=O)CCC1 (stereo unspecified)
    -2.6	13	-4	0	-2.6%	-0.5
Cc1ccc(/C=N/NS(=O)(=O)c2ccc([N+](=O)[O-])cc2)o1
    2.2	28	3	4	2.9%	1.6
CC1CCCN(Cc2nc3c(c(=O)n(C)c(=O)n3C)n2CC(=O)c2ccccc2)C1 (stereo unspecified)
    -2.1	21	1	6	1.1%	0.9
Cc1nc(C)c(CC(=O)N2CCc3c([nH]c4ccccc34)C2c2ccccn2)s1 (stereo unspecified)
    -1.4	-17	0	-4	0.0%	0.7
COC(=O)c1ccc(CSc2nncn2C)cc1
    -3.6	-11	7	2	0.8%	0.2

(cont.)
Value order: D2 agonist	TRPML1 blocker	Six1-Eya2 inh	CtBP-E1A blk	PINK1 expr mod	TRPML1 agonist
Cc1ccc(N(CC(=O)NC2CCCCCC2)S(=O)(=O)c2c(C)nn(C)c2C)cc1
    -1.1	-9	0	1	-5.2%[38.3 µM]	0.4
COc1cc2c(C#N)c(N3CCc4ccccc4C3)nc(N)c2c(N)n1
    5.5	-18	-22	-24	-0.9%	1.3
COc1ccc(C(=O)NNC2=CC(=O)CC(C)(C)C2)cc1
    -2.1	10	9	-2	1.2%	0.4
CC(=O)Nc1nonc1-c1nnc(SCC(=O)Nc2cccc(C)c2C)n1-c1ccccc1
    nt	1	nt	nt	-0.2%	-1.2
COc1ccc(C)cc1N(C)C(=O)Cc1c(C(=O)O)n(C)c2ccccc12
    -3.2	-1	6	6	-1.8%	-1.3
CCOC(=O)c1[nH]c(C)c(C(=O)NCc2ccc(Cl)cc2)c1C
    0.0	11	2	7	2.6%[38.3 µM]	-0.2
Cc1ccc(/C=C/C(=O)NN2CCN(C)CC2)cc1
    0.7	-1	-4	5	1.0%	4.4
CCCc1c(C(=O)N/N=C(\C)c2ccc(O)cc2)nnn1-c1nonc1N
    -2.9	-1	-4	0	0.1%	0.4
COc1cccc(NC(=O)CSc2nnc(COc3ccc(Cl)cc3)o2)c1
    nt	12	nt	nt	6.9%	-1.2
CC(=O)c1ccc(N/C=C\C(=O)c2ccc(C)cc2)cc1
    -19	6	0	-20	12%	0.1

(next part)
Value order: D2 agonist	TRPML1 blocker	Six1-Eya2 inh	CtBP-E1A blk	PINK1 expr mod	TRPML1 agonist
COc1ccccc1NS(=O)(=O)c1cccc(-n2c(O)c(C=Nc3ccccc3C(=O)O)c3ccccc3c2=O)c1
    5.3	13	?	-11	0.1%	2.9
Cn1nc(-c2ccccc2)c(CSc2ccccc2Cl)c1Cl
    -0.7	13	55	18	4.2%	2.4
COc1ccc(NC(=O)CSc2nc(C)cs2)c(OC)c1
    2.9	10	2	3	0.1%	0.9
CCN1CCN(c2nnc(-n3cccc3C(=O)Nc3cccc(OC)c3)s2)CC1
    nt	-3	nt	nt	2.4%	0.2
COC(=O)c1ccc2c(=O)n(CC3CCCO3)c(SCC(=O)Nc3ccccc3Cl)nc2c1 (stereo unspecified)
    -3.4	1	2	3	9.1%	-0.1
O=c1c2c(nc3c(-c4ccccc4)c[nH]n13)CCC2
    -2.1	2	-19	0	1.0%[38.3 µM]	-0.5
Cc1cccc(-c2cc(C(=O)Nc3sc(C)c(C)c3C(N)=O)c3ccccc3n2)c1
    -6.5	-11	4	2	?	1.5
COc1ccc(NC(=O)Cc2nnc(SCC(=O)NC3CCCCC3)n2C)cc1
    -9.0	-3	5	0	-0.3%	-1.2
Fc1cc(Br)ccc1Nc1c2c(nc3nc(-c4cccs4)nn13)CCCC2
    nt	44	nt	nt	1.5%	3.5
Cc1ccnc(NC(=O)CCC2COc3ccccc3O2)c1 (stereo unspecified)
    2.9	5	10	-1	1.8%	1.9

(listing goes on)
Value order: D2 agonist	TRPML1 blocker	Six1-Eya2 inh	CtBP-E1A blk	PINK1 expr mod	TRPML1 agonist
CCCCCC1CC(CC(=O)O)C(=O)O1 (stereo unspecified)
    -2.4	29	4	8	0.1%	5.3
CC1(C)Cc2nc3sc4c(=O)n(CC(=O)NCc5ccco5)cnc4c3cc2CO1
    -2.4	16	-4	4	11µM*	0.8
Cc1ccc2oc(C(=O)N(C)Cc3cnccn3)c(C)c2c1
    2.4	27	1	4	3.7%	0.0
COc1ccc(NC(=O)Cc2coc3cc(C)ccc23)cn1
    -0.1	15	6	6	-0.2%	-0.2
Cc1ccc(NC(=S)NNC(=O)CCn2cc(C)cn2)cc1
    -5.2	4	2	2	0.3%[38.3 µM]	0.5
C=CC[C@@H](Cc1ccc(F)cc1)C(=O)OC[C@@H]1CCCN1C(=O)[C@H](CC=C)CC(=O)NCCO
    5.1	-2	-1	5	-1.3%	-0.3
Cc1ccc(Cn2c(CNS(=O)(=O)c3ccc(Cl)s3)nc3cccnc32)cc1
    nt	3	nt	nt	1.2%	0.1
O=C(CNS(=O)(=O)Cc1ccccc1)NNc1ccccc1
    -4.2	nt	4	9	0.0%	-0.5
CCC(=O)c1ccc(OCC(=O)N2CCN(c3ccccn3)CC2)cc1
    0.1	-5	-2	-4	0.1%	-0.4
Cc1ccc2c(Cl)c(C(=O)NCCCN3CCOCC3)sc2c1
    -1.6	-8	-4	7	-1.1%	0.1

The results go on.
Value order: D2 agonist	TRPML1 blocker	Six1-Eya2 inh	CtBP-E1A blk	PINK1 expr mod	TRPML1 agonist
COC(=O)c1ccc(NC(=S)NC2CC2)cc1
    -3.7	8	3	nt	0.6%	0.9
CCOC(=O)C1(CCc2ccccc2)CCN(Cc2ccc(O)cc2)CC1
    0.3	26	-3	-3	4.0%	1.4
CC(=O)Nc1ccc(NC2CCCCC2NS(=O)(=O)c2ccccc2)cc1 (stereo unspecified)
    1.6	4	3	1	0.4%	-0.3
O=C(Nc1ccc(F)c(Cl)c1)c1cc(C2CCCCN2C(=O)C2CC2)on1 (stereo unspecified)
    0.2	nt	1	0	1.2%	0.5
Cc1cccc(NC(=O)c2cccc(S(=O)(=O)N3CCCCC3)c2)c1
    -0.7	14	-3	3	-0.6%	-0.2
Cc1ccc(OCC(=O)NCCCNC(=O)c2ccccn2)cc1C
    7.9	2	6	1	0.7%	1.5
CCN(C[C@H]1N[C@@](C)(C(=O)OC)[C@H]2C(=O)N(C)C(=O)[C@@H]12)C(=O)Nc1ccc(Cl)cc1
    -0.6	-9	14	5	-0.3%	-0.4
CCOC(=O)CSc1nc2c(sc(=S)n2-c2ccccc2OC)c(=O)n1-c1ccccc1OC
    -2.2	-10	-22	-15	3.6%	-0.5
O=C(NN=Cc1cccc(O)c1O)c1ccccc1
    4.0	nt	-90*	-91*	0.0%	-0.9
CC(=O)Nc1cc(-c2ccccc2CN(C)C)cn2c(-c3ccc(C(C)=O)cc3)cnc12
    -5.7	nt	-4	-4	5.8%	-0.5

Other compounds:
Value order: D2 agonist	TRPML1 blocker	Six1-Eya2 inh	CtBP-E1A blk	PINK1 expr mod	TRPML1 agonist
CC(C)Nc1nnc(SCC(=O)Nc2sccc2C#N)s1
    -2.4	-16	-17	nt	3.3%	-1.6
CCc1ccccc1NC(=S)N(CCN1CCCCCC1)Cc1ccco1
    -1.9	-10	6	-2	1.4%	0.9
O=C(Nc1ccc(Cl)cc1)Nc1ccc(Oc2cccnc2)nc1
    -0.6	10	6	2	0.0%	1.1
CCOC(=O)Nc1ccc2c(c1)N(C(=O)CCN1CCN(C)CC1)c1ccccc1S2
    0.3	-11	-3	2	-1.5%	0.2
COc1ccc(-n2c(C)ccc2C)c([N+](=O)[O-])c1
    -3.6	44	-7	-11	-0.4%	0.7
O=C(OCC(=O)N(C1CCCCC1)C1CCCCC1)c1ccc(O)cc1
    1.3	-9	10	9	13%	0.9

Six compounds drawn at random from those above, as already listed:
Value order: D2 agonist	TRPML1 blocker	Six1-Eya2 inh	CtBP-E1A blk	PINK1 expr mod	TRPML1 agonist
CCc1ccccc1NC(=S)N(CCN1CCCCCC1)Cc1ccco1
    -1.9	-10	6	-2	1.4%	0.9
O=C(Nc1ccc(Cl)cc1)Nc1ccc(Oc2cccnc2)nc1
    -0.6	10	6	2	0.0%	1.1
COc1ccc(-n2c(C)ccc2C)c([N+](=O)[O-])c1
    -3.6	44	-7	-11	-0.4%	0.7
O=C(OCC(=O)N(C1CCCCC1)C1CCCCC1)c1ccc(O)cc1
    1.3	-9	10	9	13%	0.9
CC(C)Nc1nnc(SCC(=O)Nc2sccc2C#N)s1
    -2.4	-16	-17	nt	3.3%	-1.6
CCOC(=O)Nc1ccc2c(c1)N(C(=O)CCN1CCN(C)CC1)c1ccccc1S2
    0.3	-11	-3	2	-1.5%	0.2

High-throughput results deposited in PubChem BioAssay by National Center for Advancing Translational Sciences (NCATS).
